From PubChem
ALR H2O2 inh: human ALR oxidase inhibition via reduced H2O2 | P55789 | purified ALR, DTT oxidation, H2O2 HRP-luminol luminescence | inhibition, % (concentration not given with the values) | actives 3.8% (n = 290,000) | AID 485317;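 active = mean and each replicate at 75% or more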;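 also: stock transfer was 7.5 nL into about 7.5 µL; 0% = neutral wells and 100% = wells with inactivated enzyme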
Target sequence (P55789 whole entry, looked up): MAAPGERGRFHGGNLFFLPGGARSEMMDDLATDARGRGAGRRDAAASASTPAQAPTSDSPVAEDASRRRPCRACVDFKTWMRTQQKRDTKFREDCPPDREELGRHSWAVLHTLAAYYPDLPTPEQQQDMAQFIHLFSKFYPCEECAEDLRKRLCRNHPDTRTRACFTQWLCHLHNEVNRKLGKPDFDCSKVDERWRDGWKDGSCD
T cruzi repl: blocks replication of Trypanosoma cruzi; T. cruzi beta-gal in NIH3T3, luminescence, 90 h; inhibition, % (no concentration beside the values); actives 1.4% (n = 300,000);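 active = mean inhibition across valid replicates above about 55%, limit read from the data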;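 also: signal also drops with host cell toxicity which is not excluded here; 0% = plate median of DMSO wells and 100% = zero luminescence signal; higher percent means less beta-gal luminescence so fewer parasites; stock transfer was 50 nL into about 50 µL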
Bfl-1 A1 inh: inhibitors of the anti-apoptotic protein A1, read as caspase activation; MEF A1-2A-BIM cells, Caspase-Glo 3/7 luminescence, 3 h; percent of clofoctol response, vehicle zero; caspase activation, % (no concentration beside the values); actives 0.066% (n = 330,000);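 active = over half of replicate activation scores above 10%, or exactly half above 10 with the replicate mean above 10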;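 also: wells of about 30 µL received 50 nL stock; many hits fall short of the cut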
LANA-H2A inh: blocks KSHV LANA binding to histone H2A/H2B. Q9QR71. cell-free LANA-H2A/H2B peptide, fluorescence polarization. inhibition, % (concentration not given with the values). actives 0.6% (n = 320,000); in the data active = inhibition mostly above about 10%, no sharp cut-off; inactive = mostly below about 6.7%;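 also: stock transfer was 7.5 nL into about 10 µL; 0% = median of vehicle wells and 100% = median of positive control wells; one replicate is shown; the record names a cut of 25% in any replicate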
Ecoli rRNA inh: selective bacterial rRNA inhibition in E. coli | AID 720706 | E. coli WT GFP vs humanized-ribosome RFP mutants, fluorescence, 24 h; hits give low values; DMSO median 0, no signal -100 | GFP signal change (wild-type ribosome), % (no concentration beside the values) | actives 1.6% (n = 350,000);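 active = significant combined selectivity score with lowered wild-type GFP, culture density cut under 30%, mutant RFP and density less affected; inactive = any of these conditions unmet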; also: one replicate is shown; some compounds called inactive have numbers as strong as hits
Calb FLC: affects C. albicans growth with fluconazole; C. albicans CaCi-2 (fluconazole-resistant clinical isolate) + fluconazole, Alamar Blue growth, 48 h; growth inhibition, % (no concentration beside the values); actives 0.57% (n = 300,000);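 active = most replicates above 75%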;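 also: all wells also contain fluconazole at 8 µg/ml as a sub-toxic cotreatment; 0% = median of DMSO wells and 100% = median of geldanamycin control wells; wells of about 8 µL received 7.5 nL stock; the first replicate is given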
Beta apoptosis: beta cell apoptosis inhibition; INS-1E cytokine-induced death, ATP luminescence, 48 h; percent of positive-control rescue, neutral wells zero; protection from apoptosis, % (test concentration not listed); actives 0.8% (n = 300,000); AID 435005;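 active = all replicates at 75% or more, or half of them and the mean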;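 also: 0% = cytokine-treated negative control wells and 100% = positive control rescue; higher means more ATP so stronger rescue from cytokine killing; wells of about 40 µL received 100 nL stock; the first replicate is given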
B2AR ag: activates human beta-2 adrenergic receptor causing internalization; P07550; Am2.2-beta2AR cells, FAP receptor internalization, flow cytometry; reference of the scale not given here; response, % (no concentration beside the values); actives 0.43% (n = 340,000); AID 504454;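 active = response above a set limit, near 3 SD of response in nonfluorescent compounds, cut at about 42% in these data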;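 also: stock transfer was 100 nL into about 11 µL; a reference agonist was the positive control; negative values mostly stem from fluorescent compounds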
Target sequence (P07550 whole entry, looked up): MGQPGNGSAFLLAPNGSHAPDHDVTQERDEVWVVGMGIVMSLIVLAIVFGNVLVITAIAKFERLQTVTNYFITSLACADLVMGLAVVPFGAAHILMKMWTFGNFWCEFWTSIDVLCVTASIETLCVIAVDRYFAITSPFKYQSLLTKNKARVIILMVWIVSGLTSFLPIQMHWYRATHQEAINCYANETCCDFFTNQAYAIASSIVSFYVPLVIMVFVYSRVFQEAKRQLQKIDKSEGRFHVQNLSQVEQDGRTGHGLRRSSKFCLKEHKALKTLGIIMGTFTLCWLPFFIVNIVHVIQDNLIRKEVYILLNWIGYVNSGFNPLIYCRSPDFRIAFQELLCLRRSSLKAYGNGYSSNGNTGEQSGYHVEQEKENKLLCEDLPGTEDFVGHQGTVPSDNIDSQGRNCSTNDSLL
Ecoli rRNA inh OD600: second read-out of Ecoli rRNA inh, no call of its own (marks repeat the call); OD600 change, %; measured here: OD600 growth;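 optical density of the mix in the first replicate; 0 = DMSO median and -100 = no signal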
Ecoli rRNA inh RFP: second read-out of Ecoli rRNA inh, no call of its own (marks repeat the call); RFP signal change, %; measured here: RFP humanized mutant strains;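 first replicate; 0 = DMSO median and -100 = no signal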
An asterisk follows results filed as active; i = inactive; . = no result given. Not all compounds are listed; count on the stated rates, not on these rows.

SMILES	ALR H2O2 inh	T cruzi repl	Bfl-1 A1 inh	LANA-H2A inh	Ecoli rRNA inh	Ecoli rRNA inh OD600	Ecoli rRNA inh RFP	Calb FLC	Beta apoptosis	B2AR ag
O=c1oc2ccccc2cc1-c1nnc(NCc2ccco2)s1	9	-8	-3.5	3.9	.	.	.	-2	7	3
COC(=O)c1ccc(NC(=S)NN2CCOCC2)cc1	44	-3	0.6	0.3	5	9	-1.9	-4	-4	-5
Cc1cc(NC(=O)c2c(Cl)c(C)nn2C)no1	4	5	0.8	0.1	.	.	.	-1	2	3
COc1ccc(CNC(=O)Nc2cc(C)ccc2C)cc1	-5	-7	-0.9	0.8	-2	5	-0.9	-6	-3	-11
Cn1c(N)c(C(=O)COC(=O)c2ccc3c(c2)OCCO3)c(=O)n(C)c1=O	.	2	0.7	-2.6	.	.	.	4	-7	-2
COC(=O)c1nc2cc3c(cc2c(C)c1C(=O)OC)OCO3	-8	-4	-0.6	2.5	.	.	.	6	-1	-2
O=C(Nc1ccncc1)C1CCN(S(=O)(=O)c2ccc(Cl)cc2)CC1	1	47	0.2	3.9	-14	-4	1.1	.	6	-3
COc1ccc(C(=O)N=c2nc3ccccn3s2)cc1	3	-11	-12	2.6	.	.	.	0	29	-6
COC(=O)CC1SC(=O)NC1=Nc1ccc(O)cc1 (stereo unspecified)	96*	3	0.6	3.1	1	9	-4.8	-2	-12	1
COc1ccc(S(=O)(=O)Nc2ccc(S(=O)(=O)N3CCOCC3)cc2)cc1C	.	-11	0.8	9.6	.	.	.	0	.	-6
CCOc1ccc(S(N)(=O)=O)cc1-c1nc2c(C(C)(C)C)nn(C)c2c(=O)[nH]1	.	41	0.6	-2.5	-18	-12	-4.1	6	6	15
CCCCCCCC(=O)N/N=C/c1ccncc1	0	-2	0.3	-0.3	6	7	-1.4	8	-1	-6
Cc1cccc(NC(=O)CSc2nc(-c3ccccc3)c(C#N)c(=O)[nH]2)c1C	91*	2	-0.2	1.0	.	.	.	-3	-6	6
CCCCN1C(=O)CC(C(=O)O)C1c1ccc(OC)cc1 (stereo unspecified)	-14	-24	-0.2	1.9	.	.	.	32	-5	4
CCN1CCC2(CC1)N=C(c1ccc(F)cc1)C(=S)N2C(=O)c1ccc(C)cc1	43	2	0.4	-1.7	8	4	-5.9	-18	0	86*
CNS(=O)(=O)c1ccc(C(=O)NCC(=O)NCC2COc3ccccc3O2)cc1 (stereo unspecified)	-8	.	-0.7	13	3	6	-2.4	.	-3	7
COc1cc(OC)cc(C(=O)NCCCCCCNC(=O)c2cc(OC)cc(OC)c2)c1	.	.	2.3	-0.2	10	7	-0.9	.	-1	1
CC12CN(Cc3ccccc3)CC(C)(CN(Cc3ccccc3)C1)C2=O	-2	7	0.7	-5.6	6	0	2.6	-17	4	2
O=C(Cc1c(O)c2ccccc2[nH]c1=O)NCc1ccccc1F	19	-10	-0.1	0.5	.	.	.	5	-2	-12
Cc1ccc(C(=O)N2CCN(C)CC2)cc1S(=O)(=O)N1CCOCC1	-17	-9	0.4	2.0	6	14	0.2	3	-2	-7
CCCCN(CCCC)C(=O)c1cn(CC)c2cc(N3CCN(C)CC3)c(F)cc2c1=O	-32	5	-0.6	1.7	-57	-77	-16	1	-5	-4
CCOC(=O)C1CCN(C(=O)c2ccc(OCC(=O)Nc3cccc(C(F)(F)F)c3)cc2)CC1	-1	-3	-0.3	0.6	-37	-49	-10	-2	5	5
CC(C(=O)NCC1(c2ccccc2)CCCC1)N1CCCC1 (stereo unspecified)	-15	-6	-0.2	0.9	14	9	-2.3	1	-3	16
Cn1c(=O)c2c(nc(CN3CCN(Cc4ccccc4)CC3)n2Cc2cccc(Cl)c2)n(C)c1=O	-19	-3	1.3	-3.4	-7	-42	12	-5	6	-1
O=C(COc1ccc2c3c(c(=O)oc2c1)CCC3)NCc1ccccn1	-5	5	-0.2	-0.7	8	11	-1.4	5	-4	4

Reprinted from above, two compounds:
SMILES	ALR H2O2 inh	T cruzi repl	Bfl-1 A1 inh	LANA-H2A inh	Ecoli rRNA inh	Ecoli rRNA inh OD600	Ecoli rRNA inh RFP	Calb FLC	Beta apoptosis	B2AR ag
Cn1c(=O)c2c(nc(CN3CCN(Cc4ccccc4)CC3)n2Cc2cccc(Cl)c2)n(C)c1=O	-19	-3	1.3	-3.4	-7	-42	12	-5	6	-1
O=C(COc1ccc2c3c(c(=O)oc2c1)CCC3)NCc1ccccn1	-5	5	-0.2	-0.7	8	11	-1.4	5	-4	4

(more compounds)
SMILES	ALR H2O2 inh	T cruzi repl	Bfl-1 A1 inh	LANA-H2A inh	Ecoli rRNA inh	Ecoli rRNA inh OD600	Ecoli rRNA inh RFP	Calb FLC	Beta apoptosis	B2AR ag
O=c1ccc(-c2ccc(S(=O)(=O)N3CCCCC3)o2)n[nH]1	-3	-15	0.5	1.9	13	8	-1.1	-24	-7	-2
O=C1OC(N2CCN(C/C=C/c3ccccc3)CC2)c2ccccc21 (stereo unspecified)	-2	10	0.4	-1.4	.	.	.	7	-2	-10
CC(Sc1nc2cc(Cl)ccc2s1)C(=O)Nc1ccc2c(c1)OCO2 (stereo unspecified)	-5	2	-0.6	0.3	.	.	.	-6	-2	-11
C[C@@]12CCC3[C@@](CCC4[C@@]3(C)CCC[C@@]4(C)C(=O)Nc3ccc(Cl)cc3)(CC1=O)C2 (stereo partly specified)	-11	.	1.4	1.8	-8	-7	3.5	.	5	2
O=C(c1ccccc1Nc1ccc(SC(F)F)cc1)N1CCCCCC1	60	19	-0.6	-3.4	.	.	.	3	3	-3
CN(C)CCNC(=O)C1CCN(S(=O)(=O)c2ccc3ccccc3c2)CC1	-3	9	-0.4	-3.3	-1	4	-0.6	8	4	1
COc1cc(CCC(=O)Nc2cc(Cl)ccc2N2CCN(C)CC2)cc(OC)c1OC	-5	17	0.6	6.0	5	8	0.4	14	0	2
CCOc1ccnc(OCC)c1Br	-1	-14	0.0	0.9	9	15	1.7	2	-4	-7
CSc1cccc(NC(=O)C2CCN(C(=O)c3ccccc3C)CC2)c1	-12	-13	0.8	1.3	-4	-2	-2.0	-8	0	-4
C[N+]1(CC(=O)OC2CCCCCCCCCCC2)CCCC1	0	16	-0.7	-12	-58	-79	-20	99*	5	3
O=C(O)/C=C/C(=O)NCCc1cccc(Cl)c1	52	-16	0.2	6.8	11	9	0.2	-25	1	1
C[C@H]1C=C(C(=O)NC2CC2)O[C@@H](OCc2ccc(CO)cc2)C1	.	-16	0.4	-4.3	10	12	-4.7	-1	-3	-4
Cc1cc(C)c(C#N)c(Nc2cccc(Br)c2)n1	-6	5	0.4	2.5	12	6	3.6	2	1	6
C[N+](C)(C)CCNC(=O)c1cc[n+](Cc2ccccc2)c(/C=N/O)c1	-14	1	3.1	-2.9	2	-7	-2.8	5	2	-4
CC12CC(NC(=O)N1c1cccc(C(=O)N3CCN(c4ccccn4)CC3)c1)c1ccccc1O2 (stereo unspecified)	-21	5	0.6	-0.9	.	.	.	-7	-1	-7
CCn1cc(C(=O)N2CCN(c3ccccc3)CC2)c(=O)c2cc(S(=O)(=O)N3CCOCC3)ccc21	36	-23	-0.5	1.2	8	8	2.3	-10	3	-5
O=C(O)c1ccc(Sc2nnc3ccccn23)c([N+](=O)[O-])c1	-1	-10	-0.2	-0.6	11	7	-2.5	-3	-7	-3
COc1ccc(CCNC(=O)c2ccc(CNS(=O)(=O)c3ccccc3)cc2)cc1OC	.	15	0.4	-4.0	.	.	.	-8	3	8
COCCNC(=O)c1onc(CSc2ccc(F)c(F)c2)c1C(=O)O	0	0	0.5	2.8	-5	0	4.2	-10	1	0
O=C1OC(N2CCN(c3ccccn3)CC2)c2ccccc21 (stereo unspecified)	14	2	0.7	1.1	-1	5	-1.4	-5	2	5
COc1ccccc1NC(=O)c1nc[nH]c1C(=O)Nc1ccccc1OC	-2	1	0.9	1.7	.	.	.	0	3	8
CC(C)(C)NC(=O)[C@@H]1CN(Cc2cccnc2)CCN1C[C@@H](O)C[C@@H](Cc1ccccc1)C(=O)N[C@H]1c2ccccc2C[C@H]1O	1	-17	1.2	-0.3	.	.	.	-5	.	4
COc1ccc(NC(=O)C2CCCN(S(=O)(=O)c3c(C)[nH]c(=O)[nH]c3=O)C2)cc1 (stereo unspecified)	-2	-8	-0.7	3.5	.	.	.	1	-5	12
COc1cccc(NC(=O)CSc2nc(O)c(C)c(=O)n2-c2ccc(C)cc2)c1	98*	-8	0.0	1.3	-5	3	-4.7	5	-4	-4
CC(C)(C)C(=O)N1CCN(c2ccnc3cc(Cl)ccc23)CC1	-8	20	0.1	-0.9	-13	-16	-1.3	0	-4	-16
SMILES	ALR H2O2 inh	T cruzi repl	Bfl-1 A1 inh	LANA-H2A inh	Ecoli rRNA inh	Ecoli rRNA inh OD600	Ecoli rRNA inh RFP	Calb FLC	Beta apoptosis	B2AR ag
Cc1cccc(NC(=O)C(C)Oc2ccccc2C)n1 (stereo unspecified)	-3	-6	-0.1	0.7	.	.	.	-8	-11	-1
O=C(O)C1[C@H]2C(=O)N(C3CCCC3)C[C@]23C=C[C@H]1O3 (stereo partly specified)	-18	-24	-0.1	-11	14	19	-0.9	-8	-4	-4
O=C(N=Nc1ccc(NOC(=O)c2ccccc2Br)cc1)c1ccccc1O	.	8	-7.0	3.8	3	16	1.0	-27	3	.
COc1ccc(C(=O)N2CCCCCCC2)cc1OC1CCN(C(C)C)CC1	5	5	-0.1	1.5	20	7	-1.2	-6	2	4
CCN(CC(=O)Nc1c(F)cccc1F)C(=O)Cc1ccc2c(c1)OCCO2	-7	.	0.8	-1.4	9	0	0.5	.	-4	-17
COc1ccc(C2C3=C(CCCC3=O)Nc3nc(SCc4ccccc4)nn32)cc1OC (stereo unspecified)	51	2	-0.7	1.9	.	.	.	6	-3	-10
Cc1ccc(-c2nnn(CC(=O)Nc3ccc4nn(-c5ccccc5)nc4c3)n2)o1	41	1	1.0	i	4	7	-0.3	-1	-6	-7
O=C(Nc1nnc(-c2ccc(F)cc2)o1)c1cc(Cl)sc1Cl	37	16	-1.4	2.3	.	.	.	-6	.	24
CC(C)C(=O)NC(Nc1cccc2cccnc12)C(Cl)(Cl)Cl (stereo unspecified)	.	9	-0.2	-0.6	.	.	.	-17	12	4
NNC(=O)c1cc2ccccc2cc1NS(=O)(=O)c1ccccc1	.	-15	0.0	1.9	-17	-14	3.7	20	-4	-6
CCn1c(=O)cc(N2CCC3(CC2)OCCO3)[nH]c1=O	27	-8	0.2	3.2	6	-1	0.0	-3	3	12
COc1ccc(C2C3=C(CC(C)(C)CC3=O)Oc3ncn(CCCn4ccnc4)c(=N)c32)cc1 (stereo unspecified)	-4	7	0.2	-1.7	.	.	.	-16	3	-11
O=C(NC1CC1)C(Cc1ccccc1)NS(=O)(=O)c1ccccc1F (stereo unspecified)	-12	8	-5.2	3.5	9	15	-0.1	-1	-1	-20
O=C(NCc1ccccc1)c1csc2c1CCCC2	-8	17	2.4	1.0	1	1	-0.7	39	-2	6
CCN1C(=O)/C(=C\c2cccc(OC(=O)c3ccco3)c2)SC1=S	.	-4	0.4	-3.6	0	6	-1.2	-10	-7	3
O=C(O)c1cccc(NC(=O)c2ccccc2NC(=O)c2ccccc2F)c1	50	-13	-1.3	17*	4	0	0.1	3	-6	-1
Nc1ccc(-c2nc(-c3ccccc3)nc3ccccc23)cc1	-3	5	-0.5	-3.2	-45	-70	-7.8	-4	-3	-10
